# Assay outcomes as filed in PubChem BioAssay.
# Rango-impB inh = Rango-importin beta binding inhibition; Q14974; Rango CFP/YFP FRET sensor + importin beta, 45 min; Potency, µM (top dose mostly 92.2 µM), for inactives: at the top dose inhibition of complex formation; actives 0.031% (n = 340,000); active = rising FRET ratio curve, often small or poorly fitted; inconclusive = mostly compound fluorescence or quenching in the first reads; inactive = flat curves in all reads;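 further: potency means the concentration at half of the fitted maximal effect; 0% = DMSO wells and 100% = buffer wells lacking importin beta; nearly all actives have a fitted effect of over 15% in size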
# Target sequence (Q14974 whole entry, looked up): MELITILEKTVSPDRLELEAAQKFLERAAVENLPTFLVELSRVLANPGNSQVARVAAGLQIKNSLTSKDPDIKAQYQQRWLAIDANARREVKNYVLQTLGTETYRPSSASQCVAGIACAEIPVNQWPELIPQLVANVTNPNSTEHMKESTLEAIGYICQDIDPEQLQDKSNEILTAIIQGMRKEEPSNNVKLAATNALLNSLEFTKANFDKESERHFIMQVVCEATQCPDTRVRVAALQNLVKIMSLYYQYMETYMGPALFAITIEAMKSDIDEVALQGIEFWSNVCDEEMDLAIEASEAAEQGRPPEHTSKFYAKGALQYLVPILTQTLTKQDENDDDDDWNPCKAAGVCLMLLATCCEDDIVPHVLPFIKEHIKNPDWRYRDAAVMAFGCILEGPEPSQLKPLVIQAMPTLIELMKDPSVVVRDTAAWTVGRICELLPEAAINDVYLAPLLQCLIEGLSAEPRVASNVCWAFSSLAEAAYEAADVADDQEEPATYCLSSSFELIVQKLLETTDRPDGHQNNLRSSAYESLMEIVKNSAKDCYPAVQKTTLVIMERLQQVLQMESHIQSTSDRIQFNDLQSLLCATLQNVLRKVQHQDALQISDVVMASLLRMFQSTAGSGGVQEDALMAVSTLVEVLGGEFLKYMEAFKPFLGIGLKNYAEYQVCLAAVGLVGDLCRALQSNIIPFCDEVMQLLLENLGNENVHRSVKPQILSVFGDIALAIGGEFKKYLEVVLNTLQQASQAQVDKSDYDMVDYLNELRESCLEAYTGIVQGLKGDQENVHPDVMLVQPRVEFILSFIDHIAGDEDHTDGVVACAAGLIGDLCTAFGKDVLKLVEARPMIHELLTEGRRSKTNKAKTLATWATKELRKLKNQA
#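 Inhibition scored from the CFP 486 nm/YFP 530 nm FRET ratio 45 min after adding 0.125 microM importin beta to 50 nM Rango biosensor preincubated 5 min with compound (room temperature, PBS with DTT, Tween-20, BSA). No-importin wells as positive control.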
# GLA inh pH 4.5 = alpha-galactosidase A (human) inhibition, pH 4.5. P06280. purified enzyme, 4-MU-alpha-Gal fluorescence, pH 4.5. activity change, negative = inhibition, % at 105 µM. 230,000 tested, under 10 active; inconclusive = small, poorly fitted or top-dose-only inhibition, or a rising curve; inactive = flat fitted curve, though single readings scatter; no compound was filed as active;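 further: 0% = full activity with enzyme and -100% = basal without enzyme; dose as in the result columns while the protocol names 77 µM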
# Rango release inh = inhibition of RanGTP-driven Rango-importin beta dissociation; O95149+P62826; actives 0.071% (n = 340,000); Potency, µM (top dose mostly 46.1 µM), for the others: at the highest dose activity change, negative = inhibition; Biochemical FRET Rango-importin beta, RanGTP-induced dissociation; active means falling FRET ratio curve, often poorly fitted, with flat reads before Ran was added; inconclusive means other falling curves, or compound fluorescence or quenching; inactive means flat or rising ratio curve;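 further: potency means the concentration at half of the fitted maximal effect; % of control where 0% means no effect; nearly all actives have a fitted effect of over 45% in size; -100% = wells without RanGTP and RCC1; the record marks most hits as doubtful in a second field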
#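 Compounds preincubate 5 min with complex of recombinant Rango and importin beta in PBS with 1 mM DTT. Ran (0.6 uM) loaded with 2 mM GTP plus 0.2 uM RCC1 starts dissociation; FRET is recorded 45 min later.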
# miR-21 FLuc = miR-21 reporter, rising signal | HeLa miR-21 FLuc reporter, luciferase, 48 h | Potency, µM (titrated, usually from 38.3 µM), for the others: at the highest dose reporter change, positive = more light | 340,000 tested, under 10 active | AID 2288; active = well fitted rising curve with a large enough effect; inconclusive = small, poorly fitted or top-dose-only effect; inactive = no such curve, though single readings can be large or run the other way;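 further: % of control where 0% means no effect; miR-21 action dims this reporter so a rising signal means less miR-21 action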
#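 Using DMEM plus 10% FBS, HeLa miR-21-FLuc cells are incubated with test compounds (final up to about 40uM) for 48 hours; firefly luciferase signal is then imaged following reagent-mediated lysis.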
# Active calls of the source: *; ? = inconclusive; nt = not tested or not shown; & = joins results of further samples. These rows are one share of the data; rates above refer to the full screens.
SMILES,Rango-impB inh,GLA inh pH 4.5,Rango release inh,miR-21 FLuc
C#CCOCCOCCOCCNc1nc(N2CCN(C(=O)[C@H](CCCCN)n3cc([C@@H](N)C(C)CC)nn3)CC2)nc(N2CCN(C(=O)[C@H](CCCCN)n3cc([C@@H](N)CO)nn3)CC2)n1 (stereo not given in full),nt,2.6,nt,1.9%
CCCC(=O)Nc1nnc(CC(=O)OCC)s1,-0.8%,0.4,-6.5%,2.7%
O=C(Nc1nnc(-c2ccc(F)cc2)s1)C1CCN(S(=O)(=O)c2ccc(Cl)cc2)CC1,-1.0%,4.3,0.9%,-9.8%
CCn1cnc2cc(NC(=O)c3ccc(C)cc3)ccc21,-0.2%,nt,-6.2%,-56.7%
CCN(CC)C(=S)Oc1c(Cl)cccc1Cl,4.6%,-11.7,-4.4%,1.6%
COc1ccc(Cl)cc1NC(=O)C(C)NC(c1ccccc1)c1ccccc1 (stereo not given),?,-0.4,2.9%,-6.6%
COc1cccc(NC(=O)c2sc3nc(N4CCOCC4)c4c(c3c2N)CCCC4)c1,-1.9%,nt,-25.7%,-42.5%
CCCCOC(=O)c1ccc(NC(=O)C(=O)CC(=O)c2ccc(OC)cc2)cc1,-0.7%,nt,-11.4%,-19.4%
COC(=O)c1nc(NC(=O)C(C)(C)C)n[nH]1,0.0%,-11.3,17.0%,-6.7%
COc1ccc(N(CC(=O)NCc2cccs2)S(=O)(=O)c2ccc(F)cc2)cc1,4.9%,nt,0.9%,nt
CN(C)S(=O)(=O)c1ccc(Cl)c(NC(=O)COC(=O)c2ccc3c(c2)NC(=O)CS3)c1,-2.1%,-7.8,-3.5%,5.1%
COc1cc2c(cc1OC)CN(CC(=O)Nc1ccc(S(=O)(=O)N3CCCC3)cc1)CC2,-0.2%,nt,2.3%,8.0%
COc1cccc2cc(C(=O)Nc3ccc(S(=O)(=O)NCC4CCCO4)cc3)c(=O)oc12 (stereo not given),0.6%,4.3,12.5%,6.6%
Cc1ccc(CN2[C@@H](CC3CCCCC3)COCCS2(=O)=O)cc1,-0.8%,nt,14.8%,-5.1%
CC12CCC(C(=O)N/N=C/c3ccc(O)cc3O)(OC1=O)C2(C)C (stereo not given),-1.1%,-2.6,-8.2%,19.7%
CSCCNC(C)=O,nt,3.5,nt,2.7%
Cc1ccc(-c2nnc(Nc3ccc(CC(N)=O)cc3)c3ccccc23)cc1S(=O)(=O)NCC1CCCO1 (stereo not given),?,-1.9,-6.5%,2.6%
CCOc1ccccc1/C=C(/NC(=O)c1ccccc1)C(=O)NCC(=O)O,?,-0.2,?,-1.9%
Cc1oc(-c2ccccc2F)nc1CS(=O)(=O)CC(=O)N1CCN(c2ccccc2)CC1,-3.1%,-9.5,-15.4%,17.7%&-4.9%
O=C(NCc1ccccc1Br)c1ccc2c(c1)OCCO2,-3.4%,nt,7.1%,-27.5%
Cc1ccc(-c2noc(-c3ccccc3Br)n2)cc1,2.0%,-3.1,4.5%,-37.9%
CN=c1sc2ccccc2n1CC(O)COc1ccccc1 (stereo not given),0.2%,0.2,1.0%,-4.3%
Cc1nc(N2CCN(C(=O)c3ccco3)CC2)nc2c1C(=O)CC(C)C2 (stereo not given),-3.4%,nt,-6.2%,-5.6%
CSCCC1NC(=O)NC1=O (stereo not given),2.8%,-1.8,-1.8%,0.0%
CCc1ccc(-c2csc(NC(=O)C3CC(=O)N(c4ccc5c(c4)OCCO5)C3)n2)cc1 (stereo not given),0.1%,-5.8,-0.1%,26.1%
Cc1cccc(-c2nnc(SCC(=O)N3c4ccccc4CCc4ccccc43)n2C)c1,-1.1%,1.4,1.2%,4.7%
C[C@H]1C[C@H]2[C@@H]3CCC4=CC(=O)C=C[C@]4(C)[C@@]3(F)[C@@H](O)C[C@]2(C)[C@@]1(O)C(=O)CO,-1.7%,nt,-8.1%,nt
COc1ccc(NC(=O)CC2Oc3ccc(C)cc3NC2=O)cc1 (stereo not given),-1.2%,0.2,34.2%,-0.2%
Cc1cc(=O)oc2c(C)c(OCC(=O)N3CCN(c4cccc(Cl)c4)CC3)ccc12,-0.1%,nt,9.1%,0.8%
O=C(Nc1nnc(N2CCCCCC2)s1)c1cc(-c2ccc(Br)cc2)on1,-2.1%,3.9,7.2%,-8.1%

# The list goes on, overlapping the part above by 2 compounds.
SMILES,Rango-impB inh,GLA inh pH 4.5,Rango release inh,miR-21 FLuc
Cc1cc(=O)oc2c(C)c(OCC(=O)N3CCN(c4cccc(Cl)c4)CC3)ccc12,-0.1%,nt,9.1%,0.8%
O=C(Nc1nnc(N2CCCCCC2)s1)c1cc(-c2ccc(Br)cc2)on1,-2.1%,3.9,7.2%,-8.1%
COc1cccc(NC(=O)c2cccc(OC)c2OC)c1,-0.8%,-3.0,-3.1%,-50.9%
Cc1ccc(C(=O)NC(C)c2ccccc2)cc1Br (stereo not given),-15.0%,2.2,-6.9%,-20.6%
Cc1ccc(N2OC3C(=O)NC(=O)C3C2c2ccco2)cc1 (stereo not given),-1.5%,1.1,-5.1%,-5.4%
Cc1ccc(CNC(=O)c2sc3ccc(S(=O)(=O)N4CCCCC4)cc3c2N)cc1,nt,-8.2,nt,0.1%
CCn1nc(NS(=O)(=O)c2ccccc2)c2cc3ccc(C)cc3nc21,-1.6%,nt,-9.3%,-10.0%
Cc1ncccc1C(=O)N1CCCC(C(=O)c2ccc3c4c(cccc24)CC3)C1 (stereo not given),5.1%,9.8,3.9%,-1.1%
CC(=O)c1ccccc1NC(=O)COC(=O)Cc1cccc(C(F)(F)F)c1,-5.1%,nt,0.7%,nt
COC(=O)c1c(C)[nH]c(C(=O)CSc2nnnn2-c2ccccc2)c1C,-4.3%,6.0,2.4%,-7.6%
COc1ccc(OC)c(C(=O)C2COC(=O)C2)c1 (stereo not given),0.9%,-1.0,-0.9%,4.1%
Cc1ccc(Cn2c(C3CCCN3c3nc(-c4ccc(F)cc4)cs3)nc3cc(C(=O)NCCCO)ccc32)cc1 (stereo not given),-0.4%,nt,-3.7%,nt
Cc1ccc(-n2c(Cl)c(Cl)nc(Cl)c2=O)cc1,?,-2.7,2.2%,?
COC(=O)[C@H](C)[C@@H]1C[C@@]1(C)[C@@H](NC(=O)OCc1ccccc1)c1ccccc1,0.7%,-0.1&0.9,20.7%,-3.2%
O=C(Cc1coc2ccc3ccccc3c12)N1CCc2ccccc21,0.8%,7.0,12.0%,-12.2%
Cc1cccc(OCCCCCNCCO)c1,3.8%,7.4,14.1%,-8.8%
CC(OC(=O)Cn1ccccc1=O)C(=O)Nc1cc(Cl)cc(Cl)c1 (stereo not given),-0.5%,nt,0.6%,nt
Fc1ccc2c(c1)Sc1ccc(Cl)cc1CC2N1CCN(CCC2OCCO2)CC1 (stereo not given),0.3%,nt,-0.8%,nt
Cc1ccc2c(=O)cc(C(=O)NC3CCS(=O)(=O)C3)oc2c1C (stereo not given),-0.5%,nt,?,-2.0%
CCCc1ncc(C(O)(c2ccccc2)c2ccc(C)cc2)n1C (stereo not given),5.3%,5.4,-7.6%,-8.2%
COc1ccc(CNC(=O)CCc2ccc(S(=O)(=O)N3CCCCCC3)cc2)cc1,-2.4%,nt,9.5%,nt
O=C(Nc1ccc(C2CC2(Cl)Cl)cc1)c1ccccc1Br (stereo not given),7.2%,-2.4,9.3%,-46.3%
CC1(C)OC2OC3C(CN)OC(c4ccccc4)OC3C2O1 (stereo not given),0.0%,nt,3.2%,nt
O=C(Cn1cc(C(F)(F)F)ccc1=O)N/N=C/c1ccc(Cl)c(Cl)c1,-0.3%,?,-6.2%,-2.0%
COc1ccc(OC)c(CN2CCN(C(=O)c3cccc(S(=O)(=O)Nc4ccc(C)cc4)c3)CC2)c1,0.9%,nt,7.6%,nt
O=C(Cn1cnc2c(oc3ccccc32)c1=O)NCC1CCCO1 (stereo not given),-0.4%,-6.4,-3.1%,-4.3%
Cc1cccc(C(=O)NC(NCCc2ccccc2)C(Cl)(Cl)Cl)c1 (stereo not given),-1.4%,-21.8,-15.5%,6.9%
CC(=O)c1cccc(NC(=S)N2CCCC2)c1,8.4%,nt,2.6%,-1.4%
CCc1ccc(CN2CCCC(C(=O)Nc3ccccc3-c3ccc(OC)cc3)C2)o1 (stereo not given),-3.4%,nt,1.0%,12.5%
O=c1[nH]c(C(Cl)(Cl)Cl)nc2ccc3ccccc3c12,0.2%,nt,-0.5%,-11.8%
CCOCc1nnc(NC(=O)C2c3ccccc3Oc3ccccc32)s1,1.1%,7.2,0.7%,1.1%
N#Cc1cc2c(=O)n3ccccc3nc2n(-c2ccc(Cl)cc2)c1=O,?,?,?,-0.2%
Cc1ccc(S(=O)(=O)N2CCCC2CNC(=O)C(=O)Nc2ccccc2)cc1 (stereo not given),-4.3%,nt,-11.6%,nt
Cc1cc(C(F)(F)F)c2c(n1)sc1c(O)cc(=O)[nH]c12,0.5%,4.1,12.5%,-2.4%
O=S(=O)(c1ccc(Br)cc1)N1CCN=C1SCc1cccc(F)c1,3.3%,nt,-8.3%,-6.9%
O=C(N/C(=C/c1ccco1)C(=O)N1CCc2ccccc21)c1ccco1,?,0.2,-13.8%,-1.1%
CCC(C)Sc1ccc([C@H]2N[C@@](CC(C)C)(C(=O)OC)[C@H]3C(=O)N(CC)C(=O)[C@@H]23)cc1 (stereo not given in full),-0.1%,nt,-1.1%,nt
Cc1cc(=O)oc2cc(OCC(=O)NCCc3c[nH]c4ccc(F)cc34)ccc12,5.4%,nt,?,-3.0%
COc1ccc(OCC(=O)Nc2cccc(-c3nc4ccccc4o3)c2)cc1,-1.5%,-12.6,-1.5%,-38.6%
CCOC(=O)C1(Cc2ccccc2C)CCCN(C(=O)CN2CCCCC2=O)C1 (stereo not given),?,nt,15.1%,-6.9%
NN/C(=C\[N+](=O)[O-])Nc1ccc(Cl)cc1,-0.1%,-2.3,-7.6%,-21.6%
CN(C)c1cccc(C(=O)Nc2ccc(N3CCOCC3)cc2)c1,-0.1%,3.4,-10.7%,-25.3%
CC(=O)OC(C)[C@H]1CC[C@H]2[C@@H]3CC[C@H]4C[C@@H](OC(C)=O)CC[C@]4(C)C3=CC[C@]12C (stereo not given in full),-3.2%,nt,-10.8%,nt
Cc1c(NC(=O)c2cc(=O)[nH]c(=O)[nH]2)c(=O)n(-c2ccccc2)n1C,-0.9%,1.1,0.3%,0.8%
CCCCn1c2ccccc2c2nnc(SCCN3CCCCC3)nc21,0.0%,nt,-5.4%,0.9%
CCc1ccc(Nc2n[n+](-c3ccccc3)c(-c3ccc(OCc4ccccc4)cc3)s2)cc1,6.3%,nt,-2.9%,26.6%
CCOc1ccc(-c2nnc(Nc3ccc(OC)c(C(=O)N4CCCCC4)c3)c3ccccc23)cc1,?,-6.5,-10.0%,18.0%
Cc1ccc(C)c(S(=O)(=O)Nc2ccc3[nH]c(=O)[nH]c3c2)c1,-3.4%,nt,-10.9%,-0.9%
Cc1cc(C(=O)COC(=O)CC2Sc3ccccc3NC2=O)c(C)n1-c1ccc2c(c1)OCO2 (stereo not given),1.5%,-7.2,9.1%,-0.9%
O=C(NCC(c1ccc(F)cc1)N1CCOCC1)c1cccc(Br)c1 (stereo not given),2.0%,1.5,20.2%,-3.1%
CC(C)(C)n1ncc2c(=O)n(Cc3c(F)cccc3Cl)cnc21,-1.2%,-28.9,5.0%,-11.6%
COC(=O)COc1ccc(/C=C2/SC(=O)N(CC(=O)N3CCCC3)C2=O)cc1Br,1.7%,-4.0,-4.4%,0.5%

# Additional records
SMILES,Rango-impB inh,GLA inh pH 4.5,Rango release inh,miR-21 FLuc
Cc1ccc(C(=O)C2CCN(C(=S)NCC3CCCO3)CC2)cc1 (stereo not given),-3.4%,0.5,19.8%,-11.8%
COc1ccc(CCNC(=O)CSc2nc(O)cc(=O)[nH]2)cc1OC,7.3%,-1.5,-13.4%,7.6%
CCN(C(=O)COC(=O)c1cccc(S(=O)(=O)NCc2ccccc2)c1)c1ccccc1,3.4%,nt,-7.5%,nt
CCOC(=O)c1c(S(=O)(=O)Nc2cccc(-c3ccno3)c2)c(C)n(C)c1C,0.1%,nt,7.5%,-8.4%
O=C(COC(=O)c1ccc(N2CCCC2=O)cc1)NCc1ccco1,0.0%,3.8,23.9%,2.5%
